# Assay outcomes (PubChem)
# StopGo FLuc: Primary qHTS Assay for Foot and Mouth Disease Virus Antivirals against NCGC Sytravon and CBC Compound Libraries: Firefly Luciferase Signal | AID 1745856, 2022 | Potency, µM (series often up to 57.5 µM), inactives show at the highest dose signal change, negative = less light | hit rate 0.23% among 120,000 | HEK cells with a luciferase reporter of 2A StopGo recoding; active = well fitted falling curve with a large enough effect; inconclusive = small, poorly fitted or top-dose-only effect; inactive = no such curve, though single readings can be large or run the other way; also: nearly all actives have a fitted effect of over 60% in size; overnight with compound
# StopGo RLuc: Primary qHTS Assay for Foot and Mouth Disease Virus Antivirals against NCGC Sytravon and CBC Compound Libraries: Renilla Luciferase Signal; AID 1745857, 2022; Potency, µM (highest dose often 57.5 µM), without a hit: top-dose signal change, negative = less light; hit rate 0.32% among 120,000; HEK cells with a luciferase reporter of 2A StopGo recoding; active means well fitted falling curve with a large enough effect; inconclusive means small, poorly fitted or top-dose-only effect; inactive means no such curve, though single readings can be large or run the other way; also: nearly all actives have a fitted effect of over 55% in size; overnight with compound
# * = called active by the depositor; ? = inconclusive; & = joins results of further samples; [ ] = another dose, or the depositor's remark. % is scaled to controls: 0 for no effect and ±100 for the full control effect; potency is read from the fitted curve at half-maximal effect.
SMILES,StopGo FLuc,StopGo RLuc
O=S(=O)(NCCc1nnc2ccc(SCc3c(F)cccc3Cl)nn12)c1ccccc1,-24%,183%[activator]
COc1ccccc1N1CCN(Cc2cc(=O)oc3cc(O)c(Cl)cc23)CC1,-1%&0%,-10%&15%
CC(C)Sc1nc2c(c(=O)[nH]c(=O)n2C)n1CC(O)COc1cccc2ccccc12 (configuration not stated),0%,0%
Cc1ccc2c(COC(=O)c3ccc(C)s3)cc(=O)oc2c1,0%,-2%
C=CCN(CC(=O)NC(N)=O)Cc1ccc(OC)cc1,24%,27%
ON(/C=C1\C=Nc2ccccc21)c1ccc(Br)cc1,171%[activator],10%
N#Cc1ccc(NC(=O)C2CC(c3ccccc3F)=NO2)cc1 (configuration not stated),26%,?
CCN(CC(=O)NC)S(=O)(=O)N1CCCC(C)C1 (configuration not stated),-10%,-12%
C=CCNC(=S)N/N=C/C1=CCC2CC1C2(C)C (configuration not stated),12%,2%
COc1ccc(C2(CNC(=O)C(=O)Nc3cccc(C(F)(F)F)c3)CCCC2)cc1OC,-21%,-12%
CCc1ccc(N=C2NC(=O)CC(C(=O)Nc3ccc(OC)cc3)S2)cc1 (configuration not stated),-5%,8%
Cc1ccc(CN2C(=O)C(O)(c3c(C)[nH]c4ccccc34)c3ccccc32)cc1 (configuration not stated),-9%,-8%
CCN1CCN(C(=O)Cn2ncc3c4ccccc4n(Cc4c(C)cc(C)cc4C)c3c2=O)CC1,-22%,-1%
COc1cc2ccccc2cc1C(=O)Nc1ccccc1SCC(N)=O,170%[activator],58%[activator]
Cc1cc(C(=O)N2CCN(S(=O)(=O)c3ccc(C(C)C)cc3)CC2)no1,15%,9%
Cc1ccc(-c2nnc(Nc3ccc(S(N)(=O)=O)cc3)c3ccccc23)cc1S(=O)(=O)N1CCCCC1,-9%,-12%
CCCSC1=C(C#N)C(c2ccc(O)c(OC)c2)CC(=O)N1 (configuration not stated),6%,-3%
O=S(=O)(NCCS(=O)(=O)N1CCN(c2ccccc2)CC1)c1ccc(Cl)cc1,-18%,12%
CCCCNC(=O)c1cccc2ncccc12,-3%,-5%
Cc1ccccc1CN(C)C(=O)CCc1nc2ccccc2s1,104%[activator],143%[activator]
COc1ccc(F)cc1S(=O)(=O)Nc1cccc(-c2ccc(N3CCC(C)CC3)nn2)c1,54%&98%[activator],0%&76%
CCc1c(C)sc(NC(=O)c2sc3ccccc3c2Cl)c1C#N,0%,8%
CCC(Cn1nnc2ccccc2c1=O)NC(=O)Nc1cc(C)cc(C)c1 (configuration not stated),-7%,66%[activator]
COc1ccc(-c2nc(C(N)=O)c3c(n2)n(-c2ccccc2OC)c(=O)n3C)c(OC)c1,4%,9%
Cc1nc2ccc(NC(=O)C3CCCC3)cc2s1,241%[activator],-15%[1.06 µM]
# More structures:
SMILES,StopGo FLuc,StopGo RLuc
Oc1cccc(C(Nc2ccccn2)c2ccc3cccnc3c2O)c1Cl (configuration not stated),-17%,-15%
CCCCSCCCNC(=O)CS(=O)Cc1nc(-c2ccc(C)cc2)oc1C (configuration not stated),3%,-6%
Cc1ccccc1CNC(=O)Cn1ncn2nc(-c3cccs3)cc2c1=O,-1%,14%
COc1ccc(-c2nc3c4cnn(-c5ccccc5F)c4ncn3n2)cc1,51%[activator],2%
Clc1ccccc1/C=N/Nc1ccccc1,64%[activator],12%
O=C(c1cccs1)C(O)c1cccs1 (configuration not stated),12%,15%
CCCCN(C)S(=O)(=O)c1cc(-c2nnc3c4ccccc4c(C)nn23)ccc1C,3%,81%[activator]
CCOc1ccc(CNC(=O)C2CCCN(S(=O)(=O)N(C)c3ccc(F)cc3)C2)cc1OC (configuration not stated),?,?
COc1ccccc1NC(=O)c1sc(-c2ccc(Cl)cc2)cc1N,72%[activator],-5%
O=C(NCCOCCn1c(=O)oc2ccccc21)Nc1ccc(F)cc1,-15%,-3%
Cc1cccc(C)c1OCC(=O)Nc1ccc2oc(C(F)(F)F)nc2c1,14%,17%
O=C(c1ccccc1)N(Cc1ccc2[nH]ccc2c1)C1CC1,7%,24%
Cc1cc(OC(C)C(=O)NC2CC(C)(C)NC(C)(C)C2)c2c(C)c(C)c(=O)oc2c1 (configuration not stated),29%,21%
CC(C)OCCCNC(=O)CCCn1c(=O)[nH]c2ccsc2c1=O,-17%,-15%
FC(F)(F)c1ccc(CCNC(=S)NCCc2ccccc2)cc1,-21%,14%
Cc1c(C(=O)NC(C)c2ccccc2)[nH]c2c1C(=O)CCC2 (configuration not stated),32%,-3%
Cc1cc(C)c2oc(-c3cccc(NC(=O)c4cc([N+](=O)[O-])ccc4N4CCOCC4)c3)nc2c1,-1%,-11%
Cc1nn(-c2ccc(N3CCOCC3)nn2)c(C)c1CCC(=O)NCc1ccccc1,-8%,-12%
CS(=O)(=O)Nc1ccccc1C(=O)OCc1cc(=O)n2nc(C3CCCCC3)sc2n1,-15%,-10%
CCOc1ccccc1NC(=O)NC(CC)c1c(-n2cccc2)sc2c1CCN(C)C2 (configuration not stated),-18%,-5%
CC(C)(C)NC(=O)CNC(=O)CC1C=CCC1 (configuration not stated),24%,6%
Cc1cc(NC(=O)n2ncc3c(C)cccc32)ccc1Br,91%[activator],2%
COc1ccc(CCC(=O)Nc2nc(C)c(C(C)=O)s2)cc1OC,29%,-3%
Cc1noc(C)c1Cn1c(=O)c2c(ncn2C2CCCC2)n(Cc2ccccc2)c1=O,-9%,-10%
COCCCNCc1ccccc1C,6%,1%
# Next part
SMILES,StopGo FLuc,StopGo RLuc
O=C(Nc1ccc2oc(-c3ccc4ccccc4c3)nc2c1)c1cccc(Cl)c1Cl,104%[activator],-6%
CC(C)C(CC(=O)O)c1ccc(Cl)cc1 (configuration not stated),15%,17%
Cc1ccc(S(=O)(=O)c2cn(C)c3cc(N4CCOCC4)c(F)cc3c2=O)c(C)c1,-15%,2%
COc1cc(/C=C/c2ccc3cccc(O)c3n2)ccc1OC(C)=O,268%[activator],3%
Cc1ccc(NC(=O)c2ccc(CSc3ccc(Cl)cc3)cc2)cc1C,36%[activator],4%
CNC(C)CC1CCCCC1 (configuration not stated),13%,1%
Cc1cccc(C(=O)NCCSC(F)(F)F)n1,0%,8%
CCn1ccc2cc(S(=O)(=O)N3CCCN(C(=O)Nc4ccccc4C(F)(F)F)CC3)ccc21,-5%,6%
CCCNc1nc2ccccc2nc1C(=O)Nc1ccc(C)c(C)c1,-2%,-4%
COc1ccc(NC(=O)C2CC(c3ccc(OC)c(OC)c3)=NO2)cc1 (configuration not stated),11%,-1%
CCCCC(CC)C(=O)Nc1sc2c(c1C#N)CCCC2 (configuration not stated),61%[activator],47%[activator]
CC1CCc2cc(F)ccc2N1C(=S)NC1CC1 (configuration not stated),-6%,-12%[1.06 µM]
CCN(CC)S(=O)(=O)c1ccc2cc(OC)ccc2c1,?,?
CCN1CCN(CC(=O)c2c(C)[nH]c3cc(C)ccc23)CC1,-12%,-20%
CCOc1cc(CNC(=O)CN2CCSc3ccccc32)cc(OCC)c1OCC,-10%,8%
CCOc1cc(/C=C2/NC(=O)NC2=O)cc(Br)c1OCc1cccc(C(=O)O)c1,11%,7%
Cc1ccc(Cl)cc1N1CCN(C(=O)Cn2cnc3onc(-c4ccc(F)cc4)c3c2=O)CC1,-6%,-10%
O=C(CCc1ncc(-c2ccccc2)o1)Nc1ccc(O)c2ccccc12,82%[activator],0%
CC(C)(C)c1ccc(OCC(=O)N(Cc2nc3ccccc3c(=O)[nH]2)CC2CCCO2)cc1 (configuration not stated),-4%,10%
COc1ccccc1/C=C/C(=O)N[C@@H]1C[C@H]2CC[C@@H]1C2,81%[activator],23%
CCN(C(=O)c1cc2c(=O)oc3ccccc3c2s1)c1cccc(C(F)(F)F)c1,-10%,-9%
N=C(N)SCc1ccc(Cl)c(Cl)c1,41%[activator],28%
CCOc1ccccc1CNCc1c(C(=O)O)n(Cc2ccccc2)c2cc(OC)ccc12,-21%,1%
Cc1ccc2cc(CN(c3ccccc3)S(C)(=O)=O)c(=O)[nH]c2c1,58%[activator],6%
CCc1ccc(NC(=O)c2cnn(-c3c(C)cccc3C)c2C2CCN(C(=O)OC(C)(C)C)CC2)cc1,-16%,-8%
# (continued)
SMILES,StopGo FLuc,StopGo RLuc
COc1ccc(/C=N/O)cc1OC,11%,8%
COc1ccccc1C1=NOC(Cn2c(=O)c3c(ncn3C)n(C)c2=O)C1 (configuration not stated),44%[activator],11%
O=C(O)C1(c2ccc(Br)cc2)CCC1,?,?
COc1ccc(-c2cc(C(=O)Oc3ccc(Br)cc3)c3ccccc3n2)cc1,24%,-5%
Cc1ccc(-n2nnnc2SCC(=O)N2CCN(CC(=O)N3CCCC3)CC2)cc1C,-10%,-23%
Cc1ccc(NC(=O)NC(=O)C(C)Cl)c(C)c1 (configuration not stated),82%[activator],-13%
CCc1nn(CC(=O)Nc2cccc(C(C)=O)c2)c(=O)c2cc3sccc3n12,2%,27%
O=C(c1cc(-c2ccccc2)on1)N(Cc1ccccc1)Cc1ccco1,55%[activator],200%[activator]
O=C(Nc1ccccc1C(=O)OCC(=O)C12CC3CC(CC(C3)C1)C2)c1ccc([N+](=O)[O-])cc1Cl,0%,-12%[1.06 µM]
NS(=O)(=O)c1ccc(NN=C2c3ccccc3-c3ccccc32)c([N+](=O)[O-])c1,-7%,-17%
O=S(=O)(c1ccccc1)c1nnn2c1nc(NCc1ccc(Cl)cc1)c1sccc12,-25%,-3%
CN(C)CCCOC(=O)COc1ccccc1,4%,6%
CCNC(=O)NC(=O)C(C)Sc1nc(-c2ccccc2)c(-c2ccccc2)o1 (configuration not stated),10%,-3%
O=C(CSc1nc2cc(Cl)ccc2s1)NCCc1ccc(F)cc1,21%,16%
O=S(=O)(c1ccc(OC(F)(F)F)cc1)N1CCN(Cc2ncc(-c3ccccc3)o2)CC1,-27%,?
Cc1nc2ccc(Cl)cc2cc1C(=O)NC(C)c1ccccc1 (configuration not stated),-10%,-9%
COc1cccc(NC(=O)/C(C#N)=C/c2c(C)n(Cc3ccccc3)c3ccccc23)c1,?,?
CC(=O)c1ccc(N2CCN(C(=O)c3csc(-c4ccc(C(C)C)cc4)n3)CC2)cc1,99%[activator],13%
O=C(c1ccccc1)c1ccccc1NC(=O)c1cc2ccccc2oc1=O,111%[activator],31%[activator]
COC(=O)c1ccc2c3c(cccc13)CC2,0%,-9%
Cn1c(=O)c2c(nc(NCc3ccccc3)n2Cc2ccc(Br)cc2)n(C)c1=O,1%,8%
Cc1oc2cc(OC(=O)c3cccs3)ccc2c(=O)c1-c1ccccc1,121%[activator],25%
COc1ccc(C(=O)C(C)Sc2nncn2-c2ccccc2OC)cc1 (configuration not stated),15%,41%[activator]
CC1=CCCC(C)(C)C1/C=C/C(C)=N\NC(=S)Nc1cccnc1 (configuration not stated),0%,4%
CCCc1cc(=O)n2[nH]c(C)c(-c3ccc(OC)cc3)c2n1,2%,2%
Cc1ccc(NC(=O)Cn2cnc3onc(-c4ccc(F)cc4)c3c2=O)c(Cl)c1,-9%,-10%
CCCCn1c(=O)[nH]c(=O)c2c1nc(-c1ccc(OC)c(C)c1)n2C,-2%,-6%
CN1CCN(C2(CNC(=O)COc3ccc(C(C)(C)C)cc3)CCCCC2)CC1,-18%,-21%
CC(C)NC(=O)CCN1C(=O)c2ccccc2Sc2ncccc21,-13%,-14%
CCc1ccccc1N1C(=O)N(CC(=O)c2ccc(OC)cc2)c2ccccc2S1(=O)=O,-8%,3%

# Only part of the results is shown; count on the stated rates, not on these rows.
